Source: PubChem BioAssay
HIV Env fusion: blocks HIV Env-driven cell-cell fusion | HeLa-JRFL Env/CEM21 cell fusion, luciferase | inhibition, % at 12.3 µM | hit rate 1.1% among 360,000;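 active = mean replicate inhibition score of at least 50 and every replicate individually at or above 50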;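 note: 0% = plate neutral controls and 100% = maraviroc near 300 nM; one replicate is shown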
Yeast UUG start: modulators of start codon recognition fidelity in yeast; S. cerevisiae UUG-firefly luciferase reporter, luminescence/redox ratio; activity score, % at 18.7 µM; hit rate 0.13% among 350,000; AID 602363;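 active = replicate mean at a twofold rise or more, about +100% in these data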;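 note: firefly luciferase made from a UUG start codon reports start codon fidelity; reporter light over untreated wells divided by growth signal over untreated wells; some hits fall short of that in this replicate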
* = called active by the depositor; [ ] = remark or other dose. These rows are one share of the data; rates above refer to the full screens.

No.	HIV Env fusion	Yeast UUG start	molecule
1	23.6[16.7 µM]	22.0	C[C@H](CO)N1C[C@H](C)[C@H](CN(C)C(=O)Nc2ccc3c(c2)OCO3)Oc2ccc(NC(=O)C3CCCCC3)cc2C1=O
2	-6.2[16.7 µM]	-8.2	CNC[C@@H]1Oc2ccc(NC(=O)NC3CCCCC3)cc2CC(=O)N([C@H](C)CO)C[C@H]1C
3	-13.6[16.7 µM]	11.4	C[C@@H]1CN([C@H](C)CO)C(=O)Cc2cc(NS(=O)(=O)c3cccs3)ccc2O[C@H]1CN(C)C(=O)NC1CCCCC1
4	29.3[16.7 µM]	2.8	O=C(C[C@@H]1CC[C@H](NS(=O)(=O)c2ccc(F)cc2)[C@@H](CO)O1)N1CCN(c2ccccc2)CC1
5	-13.0[16.7 µM]	4.7	COCC(=O)N(C)C[C@@H]1Oc2cc(-c3ccc(C)cc3)ccc2S(=O)(=O)N([C@@H](C)CO)C[C@@H]1C
6	-9.2[16.7 µM]	-5.9	COc1ccc(S(=O)(=O)Nc2ccc3c(c2)C(=O)N([C@H](C)CO)C[C@H](C)[C@H](CN(C)Cc2ccc(C(=O)Nc4ccccc4N)cc2)O3)cc1
7	1.3[16.7 µM]	-2.8	COCC#Cc1cnc2c(c1)C(=O)N([C@H](C)CO)C[C@H](C)[C@H](CN(C)C(C)=O)O2
8	2.9[16.7 µM]	-0.5	CC(C)NC(=O)N(C)C[C@H]1Oc2ccc(NC(=O)CCN3CCOCC3)cc2C(=O)N([C@@H](C)CO)C[C@H]1C
9	-2.4[16.7 µM]	2.6	C[C@@H]1CCCCO[C@H](CN(C)C(=O)C2CCCCC2)[C@H](C)CN([C@@H](C)CO)C(=O)c2cc(NS(=O)(=O)c3ccc(F)cc3)ccc2O1
10	1.5[16.7 µM]	3.7	C[C@@H]1CN([C@H](C)CO)C(=O)c2cc(NC(=O)CCC(F)(F)F)ccc2O[C@@H](C)CCCCO[C@H]1CN(C)C(=O)NC1CCCCC1
11	-13.5[16.7 µM]	-3.3	Cc1noc(C)c1NC(=O)N(C)C[C@@H]1Oc2ccc(NC(=O)C3CCCCC3)cc2CC(=O)N([C@H](C)CO)C[C@@H]1C
12	-5.1[16.7 µM]	-4.4	CCCC#Cc1cnc2c(c1)C(=O)N([C@@H](C)CO)C[C@@H](C)[C@H](CN(C)C(=O)Cc1cccnc1)O2
13	57.2*[16.7 µM]	-6.6	Cc1noc(C)c1S(=O)(=O)Nc1ccc2c(c1)C(=O)N([C@@H](C)CO)C[C@H](C)[C@@H](CN(C)C(=O)Nc1ccc(C(F)(F)F)cc1)OCCCC[C@H](C)O2
14	19.1[16.7 µM]	-10.2	C[C@@H]1CN([C@H](C)CO)S(=O)(=O)c2ccc(C3=CCCC3)cc2O[C@H]1CN(C)S(=O)(=O)c1cn(C)cn1
15	23.1[16.7 µM]	12.5	O=C(CCN1CCCCC1)NCC[C@@H]1CC[C@@H](NC(=O)c2ccc(F)cc2)[C@H](CO)O1

Compounds 8–15 from above:
No.	HIV Env fusion	Yeast UUG start	molecule
8	2.9[16.7 µM]	-0.5	CC(C)NC(=O)N(C)C[C@H]1Oc2ccc(NC(=O)CCN3CCOCC3)cc2C(=O)N([C@@H](C)CO)C[C@H]1C
9	-2.4[16.7 µM]	2.6	C[C@@H]1CCCCO[C@H](CN(C)C(=O)C2CCCCC2)[C@H](C)CN([C@@H](C)CO)C(=O)c2cc(NS(=O)(=O)c3ccc(F)cc3)ccc2O1
10	1.5[16.7 µM]	3.7	C[C@@H]1CN([C@H](C)CO)C(=O)c2cc(NC(=O)CCC(F)(F)F)ccc2O[C@@H](C)CCCCO[C@H]1CN(C)C(=O)NC1CCCCC1
11	-13.5[16.7 µM]	-3.3	Cc1noc(C)c1NC(=O)N(C)C[C@@H]1Oc2ccc(NC(=O)C3CCCCC3)cc2CC(=O)N([C@H](C)CO)C[C@@H]1C
12	-5.1[16.7 µM]	-4.4	CCCC#Cc1cnc2c(c1)C(=O)N([C@@H](C)CO)C[C@@H](C)[C@H](CN(C)C(=O)Cc1cccnc1)O2
13	57.2*[16.7 µM]	-6.6	Cc1noc(C)c1S(=O)(=O)Nc1ccc2c(c1)C(=O)N([C@@H](C)CO)C[C@H](C)[C@@H](CN(C)C(=O)Nc1ccc(C(F)(F)F)cc1)OCCCC[C@H](C)O2
14	19.1[16.7 µM]	-10.2	C[C@@H]1CN([C@H](C)CO)S(=O)(=O)c2ccc(C3=CCCC3)cc2O[C@H]1CN(C)S(=O)(=O)c1cn(C)cn1
15	23.1[16.7 µM]	12.5	O=C(CCN1CCCCC1)NCC[C@@H]1CC[C@@H](NC(=O)c2ccc(F)cc2)[C@H](CO)O1

Continuation.
No.	HIV Env fusion	Yeast UUG start	molecule
16	-26.0[16.7 µM]	-14.0	C[C@@H]1CN([C@H](C)CO)C(=O)c2cc(C3=CCCC3)cnc2O[C@@H]1CN(C)C(=O)c1ccncc1
17	-7.5[16.7 µM]	23.2	Cc1noc(C)c1NC(=O)Nc1ccc2c(c1)C(=O)N([C@@H](C)CO)C[C@H](C)[C@@H](CN(C)C(=O)NC1CCCCC1)O2
18	11.7[16.7 µM]	-9.1	C[C@H]1CN([C@@H](C)CO)C(=O)c2cc(-c3cncnc3)cnc2O[C@@H]1CN(C)Cc1ccc(F)cc1
19	12.2[16.7 µM]	4.5	CC(C)NC(=O)N(C)C[C@@H]1Oc2ccc(NC(=O)CCCCCC(=O)Nc3ccccc3N)cc2CC(=O)N([C@@H](C)CO)C[C@@H]1C
20	4.3[16.7 µM]	0.3	C[C@@H]1CN([C@@H](C)CO)C(=O)c2cc(NC(=O)c3ccncc3)ccc2O[C@@H](C)CCCCO[C@@H]1CN(C)Cc1ccc(C(=O)O)cc1
21	5.0[16.7 µM]	-2.6	C[C@@H]1CN([C@@H](C)CO)C(=O)c2cc(NC(=O)CCC(F)(F)F)ccc2O[C@@H](C)CCCCO[C@@H]1CN(C)CC1CCCCC1
22	-19.8[16.7 µM]	5.4	C[C@@H]1CN([C@H](C)CO)C(=O)Cc2cc(NC(=O)Cc3ccccc3)ccc2O[C@H]1CN(C)C(=O)Nc1ccc(C(F)(F)F)cc1
23	-19.3[16.7 µM]	10.9	CO[C@H]1CN(C)C(=O)c2cc(NC(=O)c3ccccc3)ccc2OC[C@@H](C)N(C(=O)C2CC2)C[C@@H]1C
24	-3.8[16.7 µM]	5.7	CO[C@H]1CN(C)C(=O)c2cc(NC(=O)C3CCCC3)ccc2OC[C@H](C)N(C(=O)CC2CC2)C[C@@H]1C
25	-1.3[16.7 µM]	5.8	C[C@@H]1CN([C@@H](C)CO)C(=O)c2cc(NC(=O)Cc3ccccc3)ccc2O[C@@H]1CN(C)Cc1ccc(C(=O)Nc2ccccc2N)cc1
26	-3.6[16.7 µM]	-4.1	O=C(C[C@H]1C[C@H]2c3cc(NS(=O)(=O)c4ccccc4)ccc3O[C@H]2[C@@H](CO)O1)NCC1CC1
27	-59.0[16.7 µM]	1.0	CCCN(C)C[C@H]1Oc2cc(C#CC3CCCC3)ccc2S(=O)(=O)N([C@@H](C)CO)C[C@H]1C
28	-31.0[16.7 µM]	0.7	CN1C(=O)c2cc(NC(=O)c3ccc4c(c3)OCO4)ccc2OC[C@H]2O[C@H](CC(=O)O)CC[C@H]21
29	-5.2[16.7 µM]	0.0	O=C(C[C@@H]1CC[C@H](NC(=O)c2ccncc2)[C@@H](CO)O1)NCC1CC1
30	3.9[16.7 µM]	-15.4	C[C@@H]1CCCCO[C@@H](CN(C)C(=O)CCC(F)(F)F)[C@@H](C)CN([C@H](C)CO)C(=O)c2cc(NC(=O)Nc3ccccc3)ccc2O1
31	-8.4[16.7 µM]	16.2	Cc1noc(C)c1NC(=O)N(C)C[C@@H]1Oc2ccc(NC(=O)C3CC3)cc2CC(=O)N([C@H](C)CO)C[C@@H]1C
32	-21.7[16.7 µM]	41.3	COc1ccc(NC(=O)Nc2ccc3c(c2)CC(=O)N([C@H](C)CO)C[C@H](C)[C@@H](CN(C)S(=O)(=O)c2c(C)noc2C)O3)cc1
33	1.9[16.7 µM]	-10.0	C[C@H]1CN([C@@H](C)CO)C(=O)c2cc(C#CC(C)(C)O)cnc2O[C@H]1CN(C)Cc1ccccn1
34	-6.4[16.7 µM]	-8.7	N#C[C@@H]1[C@@H](c2ccc(C3=CCCC3)cc2)[C@H](CO)N1C(=O)C1CCC1
35	13.6[16.7 µM]	8.5	C/C=C/c1cnc2c(c1)C(=O)N([C@H](C)CO)C[C@@H](C)[C@H](CN(C)C(=O)Nc1ccc(C(F)(F)F)cc1)O2
36	8.1[16.7 µM]	-5.3	COc1ccc(S(=O)(=O)N[C@H]2CC[C@@H](CC(=O)NCc3ccccc3F)O[C@@H]2CO)cc1
37	18.4[16.7 µM]	-3.7	Cc1noc(C)c1NC(=O)N(C)C[C@@H]1OCCCC[C@H](C)Oc2ccc(NC(=O)c3ccccc3)cc2C(=O)N([C@@H](C)CO)C[C@@H]1C
38	42.0[16.7 µM]	-3.2	O=C(Nc1ccc(Cl)cc1)N[C@H]1CC[C@@H](CCn2cc(-c3ccccc3F)nn2)O[C@H]1CO
39	-77.9[16.7 µM]	4.8	C[C@@H]1CCCCO[C@@H](CN(C)C(=O)C2CCCCC2)[C@@H](C)CN([C@@H](C)CO)C(=O)c2cc(NS(=O)(=O)c3ccc(F)cc3)ccc2O1
40	7.9[16.7 µM]	-11.6	CC(C)NC(=O)N(C)C[C@H]1Oc2c(cccc2N(C)C)C(=O)N([C@H](C)CO)C[C@H]1C
41	3.7[16.7 µM]	9.0	Cc1noc(C)c1NC(=O)N(C)C[C@H]1OCCCC[C@H](C)Oc2ccc(N(C)C)cc2C(=O)N([C@@H](C)CO)C[C@@H]1C
42	11.2[16.7 µM]	1.6	C[C@@H]1CCCCO[C@@H](CN(C)Cc2ccc3c(c2)OCO3)[C@@H](C)CN([C@H](C)CO)C(=O)c2cc(NC(=O)Nc3cccc4ccccc34)ccc2O1
43	-5.5[16.7 µM]	9.7	CC(=O)N(C)C[C@H]1Oc2ncc(C#CC3(O)CCCC3)cc2C(=O)N([C@H](C)CO)C[C@@H]1C
44	6.9[16.7 µM]	18.2	CC(C)NC(=O)Nc1ccc2c(c1)C(=O)N([C@H](C)CO)C[C@H](C)[C@@H](CN(C)S(C)(=O)=O)OCCCC[C@H](C)O2
45	-40.5[16.7 µM]	1.3	COCC#Cc1ccc2c(c1)O[C@H](CN(C)S(=O)(=O)c1cccc(OC)c1)[C@@H](C)CN([C@@H](C)CO)S2(=O)=O
46	12.1[16.7 µM]	-9.4	CCC(=O)Nc1ccc2c(c1)OC[C@@H](C)N(CC1CCOCC1)C[C@H](C)[C@@H](OC)CN(C)C2=O
47	1.9[16.7 µM]	-5.3	O=C(NCC[C@H]1CC[C@@H](NS(=O)(=O)c2ccccc2)[C@H](CO)O1)c1cc(Cl)cc(Cl)c1
48	-11.6[16.7 µM]	-9.9	C[C@@H]1CN([C@@H](C)CO)C(=O)Cc2cc(NC(=O)Cn3cnnn3)ccc2O[C@@H]1CN(C)S(=O)(=O)c1cn(C)cn1
49	9.1[16.7 µM]	2.5	COCC#Cc1cnc2c(c1)C(=O)N([C@H](C)CO)C[C@H](C)[C@@H](CN(C)C(=O)c1ccc3c(c1)OCO3)O2
50	-0.2[16.7 µM]	-2.9	CN(C)CC(=O)N1[C@H](CO)[C@@H](c2ccc(-c3ccccc3F)cc2)[C@@H]1C#N
51	-5.1[16.7 µM]	-5.8	CO[C@@H]1CN(C)C(=O)c2cc(NC(=O)NC3CCCCC3)ccc2OC[C@@H](C)N(C)C[C@@H]1C
52	-1.1[16.7 µM]	2.4	Cc1noc(C)c1NC(=O)N(C)C[C@H]1Oc2ccc(N(C)C)cc2CC(=O)N([C@@H](C)CO)C[C@H]1C
53	4.0[16.7 µM]	-2.6	C[C@H]1CN([C@@H](C)CO)C(=O)Cc2cc(NS(=O)(=O)c3ccc(Cl)cc3)ccc2O[C@@H]1CN(C)S(=O)(=O)c1cn(C)cn1
54	-18.0[16.7 µM]	-13.3	Cc1ccc(S(=O)(=O)Nc2ccc3c(c2)C(=O)N([C@H](C)CO)C[C@H](C)[C@H](CN(C)C(=O)Nc2ccc4c(c2)OCO4)OCCCC[C@@H](C)O3)cc1
55	14.1[16.7 µM]	-7.1	O=C(C[C@H]1C[C@@H]2c3cc(NC(=O)C4CCC4)ccc3O[C@@H]2[C@@H](CO)O1)NCCN1CCCCC1
56	-4.7[16.7 µM]	-13.3	CNC[C@@H]1OCCCC[C@H](C)Oc2ccc(NS(=O)(=O)c3c(C)noc3C)cc2C(=O)N([C@@H](C)CO)C[C@@H]1C
57	1.6[16.7 µM]	18.5	O=C(Cc1ccccn1)NCC[C@@H]1CC[C@@H](NC(=O)c2ccccc2F)[C@H](CO)O1
58	2.0[16.7 µM]	1.0	COc1ccc(S(=O)(=O)Nc2ccc3c(c2)CC(=O)N([C@H](C)CO)C[C@H](C)[C@H](CN(C)Cc2ccccc2)O3)cc1
59	-6.9[16.7 µM]	12.0	Cc1noc(C)c1NC(=O)Nc1ccc2c(c1)C(=O)N([C@H](C)CO)C[C@@H](C)[C@H](CN(C)S(=O)(=O)c1ccc(F)cc1)OCCCC[C@H](C)O2
60	5.2[16.7 µM]	-4.6	C/C=C/c1ccc2c(c1)O[C@H](CN(C)C(=O)C1CCOCC1)[C@@H](C)CN([C@@H](C)CO)S2(=O)=O
61	-10.8[16.7 µM]	3.6	C[C@H]1CN([C@@H](C)CO)C(=O)Cc2cc(NS(=O)(=O)c3ccc(F)cc3)ccc2O[C@H]1CN(C)Cc1ccc2c(c1)OCO2
62	5.6[16.7 µM]	-7.7	O=C(Nc1cccc(Cl)c1)N[C@@H]1CC[C@H](CCNC(=O)C2CCC2)O[C@@H]1CO
63	-4.1[16.7 µM]	-8.6	COC(=O)C[C@@H]1CC[C@H]2[C@@H](COc3ccc(NC(=O)c4cccs4)cc3C(=O)N2C)O1
64	4.6[16.7 µM]	-2.2	C[C@H]1CN([C@@H](C)CO)S(=O)(=O)c2ccc(C3=CCCC3)cc2O[C@@H]1CN(C)Cc1cccnc1
65	17.5[16.7 µM]	-0.6	CCNC(=O)C[C@@H]1CC[C@@H]2[C@H](COc3ccc(NC(=O)c4ccccc4)cc3C(=O)N2C)O1
